D2 agonist = agonists of human D2 dopamine receptor (beta-arrestin); P14416; DiscoveRx PathHunter D2 beta-arrestin, luminescence, 90 min; 100% = 57 uM dopamine signal; activation, % (no concentration beside the values); hit rate 0.084% among 360,000; AID 624465; in the data active = activation above about 40%; inconclusive = about 15% to 40%; inactive = below about 15%; further: compound concentration not given in the record; the text of the record calls up to 30% inactive
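DiscoveRx PathHunter D2 beta-arrestin cells (2,100/well) attached overnight, then compound-stimulated 90 min at 37 C in HBSS/10 mM HEPES/0.1% Tween-20 buffer; beta-galactosidase complementation read by luminescence after 1 h at ambient temperature. Dopamine 57 uM final (EC100) as control.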
CtBP-E1A inh = inhibitors of CtBP/E1A interaction | AlphaScreen GST-E1A/His-CtBP binding, 1536-well; stronger effect = lower value; control for the full effect not named in the record | activity change, % (concentration not given with the values) | hit rate 0.49% among 340,000 | AID 651724; in the data active means activity change below about -65%; inconclusive means about -30% to -65%; inactive means above about -30%; further: on the % scale 0 is the no-effect control and ±100 the full control effect
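Protein mix (5X: 125 nM each GST-E1A, His-CtBP) was incubated with pinned compound 2 h at 37 deg C in dark, in 50 mM Tris pH 8.0 buffer with 300 mM NaCl. Glutathione donor and nickel acceptor beads followed; AlphaScreen signal read after 1 h.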
gsp ag = agonists of gsp mutant (McCune-Albright syndrome); Potency, µM (titrated, usually from 76.9 µM), for the others: at the top dose activation (cAMP increase), actives largely listed as activators; hit rate 0.13% among 340,000; gsp mutant cells, cAMP HTRF, 30 min; control for the full effect not named in the record; active = well fitted activation curve with a large enough effect; inconclusive = small, poorly fitted or top-dose-only effect, or another doubt; inactive = no such curve, though single readings can be large or run the other way; cell line not stated here;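 further: phosphodiesterase inhibitor Ro 20-1724 added with compounds to block cAMP breakdown; potency means the concentration at half of the fitted maximal effect; nearly all actives have a fitted effect of over 60% in size; about a fifth of the inactives were tested at one dose only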
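Cells stably selected in G418 were plated at 2000/well, grown 16-24 hr, then given compounds in DMSO with the PDE inhibitor […] (300 uM solution added) for 30 min at 37C; cAMP was read by HTRF.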
D2 potentiator = potentiates the human D2 dopamine receptor allosterically; P14416; DiscoveRx D2 beta-arrestin cells, luminescence, 90 min; 100% = 57 uM dopamine signal; potentiation, % (test concentration not listed); hit rate 0.23% among 360,000; AID 624464; active = potentiation of 50% or more; inconclusive = 30% to 50%; inactive = 30% or less;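 further: compound concentration not given in the record; tested on top of an EC20 dose of dopamine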
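D2 cells co-treated with compound plus 50 nM dopamine (EC20) for 90 min at 37 deg C to detect potentiation. Beta-arrestin recruitment was read as enzyme-fragment luminescence after 1 h at ambient temperature. Full response was set by 57 uM dopamine.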
Six1-Eya2 inh = blocks human Six1 binding to Eya2. activity change, % (concentration not given with the values). AlphaScreen GST-Six1/His-Eya2 binding, biochemical; stronger effect = lower value; control for the full effect not named in the record. AID 651725. hit rate 0.56% among 360,000; in the data active = activity change below about -65%; inconclusive = about -30% to -65%; inactive = above about -30%; further: on the % scale 0 is the no-effect control and ±100 the full control effect
Target sequence (O00167 whole entry, looked up): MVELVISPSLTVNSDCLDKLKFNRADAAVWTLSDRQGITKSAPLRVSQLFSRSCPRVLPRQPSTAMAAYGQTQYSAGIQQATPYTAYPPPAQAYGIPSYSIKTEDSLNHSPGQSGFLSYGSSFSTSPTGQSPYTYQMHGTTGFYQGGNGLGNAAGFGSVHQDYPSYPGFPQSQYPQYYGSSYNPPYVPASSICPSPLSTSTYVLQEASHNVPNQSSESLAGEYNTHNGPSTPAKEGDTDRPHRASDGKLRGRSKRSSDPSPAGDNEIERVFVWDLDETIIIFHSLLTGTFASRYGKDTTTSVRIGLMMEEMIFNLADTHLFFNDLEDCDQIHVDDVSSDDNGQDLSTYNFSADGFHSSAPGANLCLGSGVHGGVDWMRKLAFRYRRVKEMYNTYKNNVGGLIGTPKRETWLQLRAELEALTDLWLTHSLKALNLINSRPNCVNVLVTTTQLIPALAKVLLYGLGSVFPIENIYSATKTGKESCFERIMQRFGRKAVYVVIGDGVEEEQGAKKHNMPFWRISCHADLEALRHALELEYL
Target sequence (Q15475 whole entry, looked up): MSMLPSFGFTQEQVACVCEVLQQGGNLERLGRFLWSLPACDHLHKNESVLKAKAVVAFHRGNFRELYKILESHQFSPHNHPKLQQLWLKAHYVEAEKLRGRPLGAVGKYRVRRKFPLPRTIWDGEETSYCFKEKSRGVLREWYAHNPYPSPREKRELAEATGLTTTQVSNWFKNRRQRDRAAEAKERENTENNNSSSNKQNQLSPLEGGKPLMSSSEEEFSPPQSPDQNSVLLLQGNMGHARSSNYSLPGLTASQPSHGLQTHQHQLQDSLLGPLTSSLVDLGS
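Homogeneous AlphaScreen proximity assay pairing GST-Six1 with His-tagged Eya2 (added as 5X mix: 250 nM and 500 nM) in 50 mM Tris pH 8.0, 300 mM NaCl, 1 mM TCEP. Glutathione donor and nickel acceptor beads; 1 h, 37 °C, dark.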
gsp antag = antagonizes gsp, the McCune-Albright syndrome mutation | hit rate 0.4% among 340,000 | gsp-mutant cells, cAMP HTRF, 30 min; control for the full effect not named in the record | Potency, µM (titrated, usually from 76.9 µM), without a hit: at the highest dose activity change, negative = inhibition, usual class: inhibitors; active = falling curve of any shape with a large fitted effect; inconclusive = falling curve, mostly with a smaller effect; inactive = flat or rising curve; cell line not stated here;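 further: intracellular cAMP measured with PDE inhibitor Ro 20-1724 present during compound exposure; potency means the concentration at half of the fitted maximal effect; on the % scale 0 is the no-effect control and ±100 the full control effect; nearly all actives have a fitted effect of over 65% in size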
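HTRF cAMP read-out (cAMP-d2 plus anti-cAMP antibody-K in lysis buffer, 30 min RT). Before lysis, cells are exposed to compounds with […] for 30 min at 37C in DPBS containing Ca/Mg, BSA and Tween 20.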
* hit, by the source's call; ? = inconclusive; · = no result given; [ ] = dose if it differs, or a comment.

D2 agonist | CtBP-E1A inh | gsp ag | gsp antag | D2 potentiator | Six1-Eya2 inh | structure
-3.9 | -10 | 3%[15.4 µM] | -8% | -5 | 10 | C/C(=N\N=C1\NC(=O)C(CC(=O)Nc2ccc(C)c(Cl)c2)S1)C(C)C (configuration not stated)
11 | 8 | 19% | 6% | -4 | 7 | COCCCNC(=O)CCN1N=C(c2ccccc2)CCC1=O
2.1 | -13 | -2% | -27% | -7 | 0 | O=C1N[C@@H](Cc2c[nH]c3ccccc23)COC(=O)[C@@H](Cc2ccc(F)cc2)C/C=C\C[C@H]1CC(=O)N(CCO)Cc1ccccc1
-3.4 | 4 | -19% | ? | -4 | -2 | CC1CC(C)CN(C(=O)c2cccc(S(=O)(=O)NCc3ccccc3)c2)C1 (configuration not stated)
-1.0 | 9 | -9%[15.4 µM] | 9% | -2 | 0 | CC(=O)NCCc1nc2cc(NS(=O)(=O)c3ccccc3)ccc2n1C
4.4 | -6 | 3%[15.4 µM] | 7% | -8 | 5 | COc1cc(C(=O)N2CCc3ccccc32)cc(OC)c1OC
-4.9 | 5 | 7% | 1% | -8 | 9 | CC1CC(C)(C)CC2(C1)NC(=O)N(CC(=O)Nc1nccs1)C2=O (configuration not stated)
2.5 | -6 | 20% | -4% | -28 | 7 | Clc1ccc(Cl)c(OCCN2CCOCC2)c1
-1.6 | 0 | · | -9% | -53 | -9 | O=C1CC[C@@H]2CC3(C[C@@H]4CCN1[C@H]24)Nc1cc([N+](=O)[O-])ccc1NC3=NC1CCCCC1 (some centres not stated)
0.8 | 2 | -22% | 13% | -6 | 2 | Cc1ccc(NC(=O)C(C)N2CCCC2)cc1Cl (configuration not stated)
-5.4 | -7 | -3% | ? | -6 | -8 | COc1ccc(CN(C(=O)c2ccco2)c2ccc(Br)cc2)cc1OC
-5.6 | 37 | 15% | -1% | -28 | -24 | O=C(Oc1cccnc1)c1ccc(Cl)c(Cl)c1
-4.1 | 0 | ? | 11% | -33 | -18 | O=C1OCc2ccc(NC(=O)c3ccccc3C(=O)O)cc21
-2.2 | -23 | ? | 4% | -3 | -11 | O=C(N/N=C/c1ccc(Br)o1)c1cncc(Br)c1
1.1 | 4 | -2% | 11% | 15 | 0 | CCn1c(CNC(=O)c2cccs2)n[nH]c1=S
-1.8 | -70* | 3% | -15% | -6 | -80* | CCCN1/C(=C2/SC(=S)N(CC)C2=O)C=Cc2ccccc21
-6.5 | 10 | -8%[15.4 µM] | -6% | -24 | -6 | CNC(=O)CSc1nnc(-c2ccco2)n1-c1cccc(C)c1C
1.8 | · | -18% | 7% | -3 | 2 | O=C(O)C1CCCN1S(=O)(=O)c1ccc(Cl)cc1 (configuration not stated)
-0.4 | 54 | 12% | 8% | -19 | 24 | Cc1ccc2ncc([N+](=O)[O-])n2c1
-1.1 | 2 | 4% | -1% | -10 | -1 | COc1nccnc1NS(=O)(=O)c1ccc(N)cc1
2.0 | 5 | -14% | 15% | -5 | 4 | NC(=O)CN1C(=O)C2C3C=CC(C3)C2C1=O (configuration not stated)
-1.1 | -2 | -2% | 4% | -11 | -3 | CC1CCCN(C(=S)Nc2ccc3nc4n(c(=O)c3c2)CCCCC4)C1 (configuration not stated)
7.0 | -5 | -1% | 1% | -17 | -2 | Cc1ccnn1CCC(=O)N1CCCC(N2CCN(c3cccc(Cl)c3)CC2)C1 (configuration not stated)
-8.2 | 0 | -7% | · | -29 | ? | Cc1ccc(NC(=S)NNC(=S)NNc2ccccc2)cc1C
-0.3 | 0 | -51%[inhibitor] | -6% | -8 | -21 | COc1cccc(CC2(CO)CCCN(Cc3cnn(-c4ccccc4)c3)C2)c1 (configuration not stated)
-0.9 | 0 | 23% | 2% | 1 | 5 | CCc1nnc(NC(=O)C2CC(=O)N(Cc3ccccc3)C2)s1 (configuration not stated)
-4.0 | 0 | -35% | 3% | 5 | -1 | COc1ccccc1NC(=O)c1ccc(NC(=O)COC(=O)CCC2CCCC2)cc1
-1.4 | -5 | -54%[inhibitor] | 1% | -7 | 16 | COc1ccc(/C=C(\C#N)C(=O)OCC(=O)NCc2ccco2)cc1
-0.4 | -5 | -30%[inhibitor] | 8% | -2 | 3 | CN(C)/N=C/C=C1\CC/C(=C\c2ccc(F)c(F)c2)C1=O
-1.2 | 2 | 7% | 4% | -1 | 9 | Cc1onc(-c2ccccc2Cl)c1C(=O)NCCCN1CCOCC1
-1.7 | -2 | 1% | -12% | -13 | -1 | Cn1ccs/c1=N\S(=O)(=O)c1ccc(C(C)(C)C)cc1
-1.0 | 0 | · | 8% | 7 | 4 | COc1ccc(NC(=O)Nc2ccc3c(c2)C(=O)N([C@H](C)CO)C[C@H](C)[C@@H](CN(C)C(=O)NC(C)C)O3)cc1
-2.6 | -79* | -2%[15.4 µM] | -6% | -13 | -78* | O=[N+]([O-])c1ccc(NN=Cc2ccccc2O)nc1
0.9 | · | -8% | -1% | 0 | 7 | O=C(c1cc(COc2c(F)cccc2F)on1)N1CCc2ccccc2C1
-2.9 | -3 | -27% | -21% | 0 | -4 | CCN(CC)S(=O)(=O)c1cccc(NC(=O)CSc2nc3ccccc3[nH]2)c1
-1.6 | 3 | -52%[inhibitor] | -3% | -1 | -2 | CCOc1ccc(CCNC(=O)CCCN2C(=O)c3ccccc3C2=O)cc1OCC

Compound profiles, as listed above. Values in the order: D2 agonist	CtBP-E1A inh	gsp ag	gsp antag	D2 potentiator	Six1-Eya2 inh
O=[N+]([O-])c1ccc(NN=Cc2ccccc2O)nc1 in the list: -2.6	-79*	-2%[15.4 µM]	-6%	-13	-78*
O=C(c1cc(COc2c(F)cccc2F)on1)N1CCc2ccccc2C1 in the list: 0.9	·	-8%	-1%	0	7

Going on with the list.
D2 agonist | CtBP-E1A inh | gsp ag | gsp antag | D2 potentiator | Six1-Eya2 inh | structure
-1.0 | 5 | -7%[15.4 µM] | 0% | -13 | -2 | COc1ccc(-c2cc(C(=O)N3CCCCC3)c3ccccc3n2)cc1
-2.2 | 2 | -26% | -12% | 3 | -5 | Cc1ccc(S(=O)(=O)N/N=C\c2cn(CC(N)=O)c3ccccc23)cc1
4.7 | -6 | ? | 4% | -4 | -19 | CCOc1ccc(NC(=O)Nc2ccc(Br)cn2)cc1
0.1 | -13 | -18% | 3% | -7 | -11 | Cc1c(Cl)c([N+](=O)[O-])nn1CC(=O)N1CCCc2ccccc21
-3.3 | -4 | ? | 27% | -19 | -5 | Nc1c(C(=O)NCc2ccco2)sc2nc(N3CCOCC3)c3c(c12)CCCC3
2.0 | 0 | -14% | 2% | -1 | -6 | COc1ccc(NC(=O)c2ccc(S(=O)(=O)N3CCCC3)cc2)cc1OC
-4.8 | -7 | 3% | -3% | -13 | 11 | CCc1cccc2c(C(=O)COC(=O)c3cnc(C)cn3)c[nH]c12
-4.7 | 1 | ? | -8% | -2 | 2 | C[C@H](NC(=O)[C@H]1N2C(=O)c3ccccc3C2SC1(C)C)C(=O)NCC1CCCO1 (some centres not stated)
-2.2 | 0 | -3%[15.4 µM] | -16% | -2 | 6 | O=C1N(Cc2cccnc2)C[C@@H]2C[C@@H](c3cccc(C(F)(F)F)c3)N3CCC[C@@]123
-1.8 | -1 | 21% | 14% | -7 | -5 | COC(=O)Nc1ccc(S(=O)(=O)N2CCN(C)CC2)cc1
3.5 | 1 | · | -27% | 1 | 3 | CS(=O)(=O)c1ccc(-c2sc3ccccc3c2C(=O)N2CCN(c3ccc(F)cc3)CC2)cc1
-3.3 | -8 | -7% | 8% | -17 | -10 | Cc1ccc(C(=O)c2coc3ccc(O)c(CN4CCN(C)CC4)c23)cc1
2.2 | 0 | 13% | 9% | -2 | 8 | NS(=O)(=O)c1ccc(NC(=S)Nc2ccc(C(=O)N3CCCCC3)cc2)cc1
-3.5 | 8 | -6%[15.4 µM] | -2% | 6 | -2 | Cc1ccc(CN2CCNC(=O)C2CC(=O)N(C)C2CCCCC2)cc1 (configuration not stated)
3.7 | 3 | -36%[inhibitor] | -5% | 0 | 0 | C=C/C(C)=C/CC1C(=C)CCC2C(C)(C(=O)O)CCCC12C (configuration not stated)
1.1 | -2 | 14% | -10% | -5 | -19 | Cc1ccc(SCCNC(=S)Nc2cc(C)cc(C)c2)cc1
-0.2 | 6 | -20% | 1% | 1 | 0 | COc1ccc(O[C@@H]2O[C@H](COC(C)=O)[C@@H](OC(C)=O)[C@H](OC(C)=O)[C@H]2NC(C)=O)cc1
-0.2 | 3 | -49%[inhibitor] | -3% | -6 | -2 | Fc1ccc(Cn2nnnc2CN2CCN(C3CCCCC3)CC2)cc1
-2.1 | 5 | -2%[15.4 µM] | ? | -10 | -5 | O=C(CCNC(=O)c1ccco1)Nc1ccc(Cl)cc1F
-8.3 | -92* | -3%[15.4 µM] | -31% | -18 | -88* | O=C(/C=C/c1ccco1)Oc1cc(Br)cc(/C=N/NC(=O)c2ccccc2O)c1
-6.0 | 3 | ? | 5% | -4 | 11 | CC(=O)NC(Cc1ccc(F)cc1)C(=O)NC1CCN(C(=O)NCc2ccccc2)CC1 (configuration not stated)
0.5 | 16 | -1%[15.4 µM] | -2% | -7 | 3 | CS(=O)(=O)Cc1ccc(C(=O)NCC2(N3CCCCC3)CCCCC2)cc1
-3.9 | -4 | 14% | -1% | -32 | -4 | O=C(Nc1ccccc1Oc1cccnc1)C1CCCN(Cc2cccc(Cl)c2)C1 (configuration not stated)
0.2 | -6 | 4% | -8% | -11 | -1 | O=C(CN1C(=O)CSc2ccc(S(=O)(=O)N3CCCCC3)cc21)NCc1ccccc1

Pulled one by one from the list above (2):
D2 agonist | CtBP-E1A inh | gsp ag | gsp antag | D2 potentiator | Six1-Eya2 inh | structure
-3.5 | 8 | -6%[15.4 µM] | -2% | 6 | -2 | Cc1ccc(CN2CCNC(=O)C2CC(=O)N(C)C2CCCCC2)cc1 (configuration not stated)
-8.3 | -92* | -3%[15.4 µM] | -31% | -18 | -88* | O=C(/C=C/c1ccco1)Oc1cc(Br)cc(/C=N/NC(=O)c2ccccc2O)c1

Next section.
D2 agonist | CtBP-E1A inh | gsp ag | gsp antag | D2 potentiator | Six1-Eya2 inh | structure
-1.0 | 0 | -9% | 1% | -2 | 1 | Cc1ccc(CS(=O)(=O)CCC(=O)NCc2ccc(F)cc2)cc1
1.9 | · | 17% | 0% | -1 | -5 | Cc1ccnc2nc(C(=O)OCC(=O)N(Cc3ccccc3)C(C)C)nn12
-2.0 | -9 | ? | ? | 2 | 8 | COc1cc(C2C(C(=O)C(C)(C)C)=C(O)C(=O)N2Cc2ccccc2)ccc1O (configuration not stated)
-1.2 | -1 | 11% | -5% | 1 | -19 | O=C(COC(=O)c1cc(-c2cccs2)nc2ccccc12)NCc1ccco1
2.2 | 2 | 0% | -7% | -2 | -1 | CCOC(=O)c1nn(-c2ccc(Cl)cc2)cc1O
-3.1 | -2 | -7% | 0% | -11 | -23 | CCOc1ccccc1N1CCN(C(=O)c2cc3c(C)cc(C)cc3[nH]2)CC1

Source: PubChem
